Screening data as filed in PubChem BioAssay.
D2 PAM: human D2 receptor positive allosteric modulation; DiscoveRx D2 beta-arrestin cells, luminescence, 90 min; 100% = 57 uM dopamine signal; 360,000 compounds, 0.23% hits; potentiation, % (test concentration not listed); active = potentiation of 50% or more; inconclusive = 30% to 50%; inactive = 30% or less;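 further: compound concentration not given in the record; tested on top of an EC20 dose of dopamine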
Target sequence (P14416 whole entry, looked up): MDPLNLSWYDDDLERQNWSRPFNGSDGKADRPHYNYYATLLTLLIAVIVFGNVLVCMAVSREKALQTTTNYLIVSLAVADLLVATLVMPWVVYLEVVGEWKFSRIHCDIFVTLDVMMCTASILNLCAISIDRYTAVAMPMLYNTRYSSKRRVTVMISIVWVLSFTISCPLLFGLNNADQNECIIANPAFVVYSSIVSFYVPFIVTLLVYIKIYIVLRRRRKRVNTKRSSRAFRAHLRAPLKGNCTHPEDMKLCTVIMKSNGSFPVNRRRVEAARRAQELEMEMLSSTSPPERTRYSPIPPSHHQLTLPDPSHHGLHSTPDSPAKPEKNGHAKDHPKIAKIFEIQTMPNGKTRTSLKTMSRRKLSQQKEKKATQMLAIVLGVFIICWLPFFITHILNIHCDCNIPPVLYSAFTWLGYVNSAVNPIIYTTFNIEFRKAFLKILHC
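D2 cells co-treated with compound plus 50 nM dopamine (EC20) for 90 min at 37 deg C to detect potentiation. Beta-arrestin recruitment was read as enzyme-fragment luminescence after 1 h at ambient temperature. Full response was set by 57 uM dopamine.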
TRPV1 PAM: potentiators of human vanilloid receptor 1 (TRPV1). TRPV1-expressing cells, Fluo-8 calcium influx, capsaicin EC20 potentiation; host cell line not named in the record; control for the full effect not named in the record. potentiation, % at 8.33 µM. 320,000 compounds, 0.02% hits. AID 540277; active means potentiation above 80%; inconclusive means 30% to 80%; inactive means below 30%; further: 0% is about no effect
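TRPV1-expressing cells were cultured overnight at 35.5C and loaded with Fluo-8 calcium dye for 40 to 90 min at room temperature. After a 10 s baseline, compound was added and calcium influx was read kinetically for 3 min (ex 480/em 520 nm).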
PINK1 expr mod: modulators of PINK1 expression; PINK1 immunofluorescence, high-content cytometry, 24 h; Potency, µM (titrated, usually from 76.6 µM), for the others: at the top dose activation (PINK1 increase), actives largely listed as activators; 410,000 compounds, 0.2% hits; AID 624263; active = well fitted activation curve with a large enough effect; inconclusive = small, poorly fitted or top-dose-only effect; inactive = flat fitted curve, though single readings scatter; cell line not stated here;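 further: potency means the concentration at half of the fitted maximal effect; % of control where 0% means no effect; nearly all actives have a fitted effect of over 65% in size; a mitochondrial uncoupler was the plate control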
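A stable cell line was treated with compounds at 5 concentrations for 24 hours, with CCCP as control. PINK1 levels and mitochondrial localization were measured by immunofluorescence with mitochondrial, cell and nuclear markers after fixation, read by laser-scanning cytometry.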
Sfp inh: Sfp phosphopantetheinyl transferase inhibition; Q9F4F7; Biochemical Sfp PPTase activity, qHTS; Potency, µM, for the others: max response, negative = inhibition, actives largely listed as inhibitors; 310,000 compounds, 3.5% hits; AID 1490; active means well fitted inhibition curve with a large enough effect; inconclusive means small, poorly fitted or top-dose-only effect, or another doubt; inactive means no such curve, though single readings can be large or run the other way;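 further: the enzyme is Sfp with the accession as filed and its product quenches rhodamine fluorescence; potency means the concentration at half of the fitted maximal effect; 0% = enzyme reaction without inhibitor and -100% = no enzyme wells; top concentration of the series not given in the record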
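Fluorescence-quenching assay with 15 nM Sfp, 5 uM rhodamine-CoA and 12.5 uM BHQ-2-labelled ybbR peptide in pH 7.6 Hepes/MgCl2 buffer. Enzyme was pre-incubated with compound for 15 min at room temperature. Rate was taken from the 30-min fluorescence change (525/598 nm).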
Six1-Eya2 blk: Six1/Eya2 interaction inhibition; AID 651725; AlphaScreen GST-Six1/His-Eya2 binding, biochemical; active compounds read low; control for the full effect not named in the record; Q15475+O00167; 360,000 compounds, 0.56% hits; activity change, % (concentration not given with the values); in the data active = activity change below about -65%; inconclusive = about -30% to -65%; inactive = above about -30%; further: on the % scale 0 is the no-effect control and ±100 the full control effect
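Compounds are tested against tagged Six1 and Eya2 proteins bridged by glutathione donor and nickel acceptor beads; after a one-hour incubation at 37 °C without light, AlphaScreen emission is recorded.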
CtBP-E1A inh: inhibitors of CtBP/E1A interaction; AlphaScreen GST-E1A/His-CtBP binding, 1536-well; active compounds read low; control for the full effect not named in the record; activity change, % (test concentration not listed); 340,000 compounds, 0.49% hits; AID 651724; in the data active means activity change below about -65%; inconclusive means about -30% to -65%; inactive means above about -30%; further: on the % scale 0 is the no-effect control and ±100 the full control effect
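In 5 uL wells, 23 nL compound meets equimolar GST-E1A and His-CtBP (5X stock 125 nM each) for 2 h, 37 °C. Beads (5X, 50 ug/mL) then 1 h, 37 °C, dark.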
D2 agonist: activates the human D2 dopamine receptor; 360,000 compounds, 0.084% hits; activation, % (no concentration beside the values); AID 624465; DiscoveRx PathHunter D2 beta-arrestin, luminescence, 90 min; 100% = 57 uM dopamine signal; in the data active = activation above about 40%; inconclusive = about 15% to 40%; inactive = below about 15%; further: compound concentration not given in the record; the text of the record calls up to 30% inactive
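Agonist mode: compounds alone added to overnight-plated D2 PathHunter cells for 90 min at 37 C, with 57 uM final dopamine (EC100) defining full response. Beta-arrestin recruitment detected by chemiluminescent reagent, read after 1 h at ambient temperature.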
Active calls of the source: *; ? = inconclusive; . = no result given; [ ] = remark or other dose.

The line under a structure holds: CtBP-E1A inh	Sfp inh	TRPV1 PAM	D2 PAM	PINK1 expr mod	Six1-Eya2 blk	D2 agonist
[1] COc1cccc(CNC(=O)C(=O)NCCC2CCCCN2S(=O)(=O)c2ccccc2)c1 (stereo not given)
→ -1	.	-7	-13	1.3%	-1	7.0
[2] COc1cccc2cc(C(=O)N3CCN(c4ncccn4)CC3)c(=O)oc12
→ -4	-4%	-4	-19	5.7%[38.3 µM]	0	-1.5
[3] CCc1ccc(NC(=S)NCC2CCCN2CC)cc1 (stereo not given)
→ 5	-9%	0	-19	6.3%	-1	-3.8
[4] CC(C)(C)N1CC(c2nc3ccccc3n2CCOc2ccccc2)CC1=O (stereo not given)
→ -1	16%	-8	3	-1.7%	-3	-0.6
[5] COc1cc(CNC[C@H]2O[C@@H](n3cc(C)c(=O)[nH]c3=O)C[C@@H]2O)ccc1OCc1cccc(Cl)c1
→ -5	.	.	0	2.8%	8	-3.3
[6] Oc1ccc(/C=N/Nc2nccnc2Cl)c(O)c1
→ -96*	14%	-7	-5	0.9%	-92*	5.1
[7] CCn1cc(C(=O)NCC(C)C)c(=O)c2cc(F)c(N3CCN(C)CC3)cc21
→ 2	4%	-9	-7	0.2%	22	0.1
[8] CCOc1ccc(-c2cc(C(=O)NN)[nH]n2)cc1
→ 11	14%	11	8	4.3%	-12	-0.6
[9] Cc1ccc(S(=O)(=O)CCC(=O)OC(C)C(=O)N2CCc3ccccc32)cc1 (stereo not given)
→ 4	.	3	-7	0.7%	0	-7.2
[10] CCOC(=O)C1(CC)NC(c2cccc(F)c2)C2C(=O)N(CC)C(=O)C21 (stereo not given)
→ ?	36%[activator]	4	-3	0.1%	11	-3.2
[11] COc1cc(C)c(CN2CCCCC2CO)cc1C (stereo not given)
→ 8	0%	0	-8	-1.0%[38.3 µM]	5	0.4
[12] O=C(CN1CCN(C(=O)c2cccc(S(=O)(=O)N3CCCC3)c2)CC1)Nc1ccccc1Cl
→ .	.	-4	22	0.8%	-3	3.5
[13] COC(=O)C(C(=O)OC)c1ccc(NC(=O)c2cccc(Cl)c2)cc1
→ -4	13%	-17	-2	5.2%	-3	-2.5
[14] C#CCOCCOCCOCCNc1nc(N2CCN(C(=O)CCCCCCCCCCNC(=O)Cn3cc(C[C@@H](C)O)nn3)CC2)nc(N2CCN(C(=O)CCCCCCCCCCNC(=O)[C@@H]([C@H](C)O)n3cc(C)nn3)CC2)n1
→ -1	.	16	-8	11%	2	0.8
[15] COc1ccc(Cl)cc1C(=O)Nc1ccc2c(c1)OCCO2
→ 6	9%	4	-1	1.2%	0	0.1
[16] COc1ccccc1OCCSc1ncnc2nc[nH]c12
→ -2	10%	8	-4	-2.0%	2	-2.7
[17] O=C1CC(c2ccccc2)CC(O)=C1C=Nc1ccc(O)cc1 (stereo not given)
→ 1	-4%	-13	0	6.6%	0	2.5
[18] C(=C\c1ccc2nncn2c1)/c1ccccc1
→ 19	.	.	9	0.4%	0	5.2
[19] CC(C)C[C@H]1CN(CCCC[C@H]2CNC(=O)C(=O)N2CCc2ccccc2)C(=O)C(=O)N1CCC1CCCCC1
→ 5	.	.	.	-0.9%	6	.
[20] COc1ccc(CC(=O)NNc2ncnc3c2cnn3C)cc1OC
→ -3	10%	0	3	3.1%	2	-3.4
[21] O=S(=O)(Nc1ccc(-c2cn3c(n2)SCC3)cc1)c1cc(F)ccc1F
→ 4	.	.	-15	0.8%	-17	-4.8
[22] COc1ccc(S(=O)(=O)NCCSCc2ccc(Cl)cc2)cc1NC(C)=O
→ 0	.	1	-15	1.4%	-3	-0.3
[23] O=C(NC1CCCCC1)N(Cc1cc2cc3c(cc2[nH]c1=O)OCCO3)CC1CCCO1 (stereo not given)
→ -2	7%	-26	-11	2.9%[38.3 µM]	4	-1.9
[24] O=C(Nc1ccccc1-c1ccccc1)c1cccc([N+](=O)[O-])c1
→ -8	7%	7	-5	-1.9%	-12	-4.4
[25] COc1ccc(C2NS(=O)(=O)OCC2C)cc1 (stereo not given)
→ 5	14%	20	-10	0.8%	0	1.6
[26] C=CCn1c(Oc2cccc(C)c2)nc2c1c(=O)n(C)c(=O)n2C
→ .	13%	4	-26	-2.3%	-1	-1.9
[27] C#CCn1c(CCNC(=O)c2ccco2)nc2ccccc21
→ 0	-3%	10	-26	0.4%	3	2.5
[28] Cc1ccc(Nc2nc3nonc3nc2N(C)C)cc1
→ 6	7%	-10	-26	-1.4%	0	-5.6
[29] O=C(O)c1ccccc1-c1ccccc1C(=O)Nc1ccc(OC(F)(F)F)cc1
→ -7	23%	0	-4	1.1%	1	3.1
[30] COc1ccc(N2CCN(C(=O)CCNS(=O)(=O)c3cc(Br)cnc3N)CC2)cc1
→ .	-3%	8	-4	-0.3%	-9	13
[31] Cc1c(C(=O)NCc2cccnc2)oc2ccc(S(=O)(=O)N3CC(C)CC(C)C3)cc12 (stereo not given)
→ -5	5%	-14	-7	7.0%	5	-3.1
[32] CCn1c(NC(=O)C(C)C)c(-c2cccs2)c(=O)c2ccccc21
→ 21	-8%	-6	-1	1.0%	-2	2.6
[33] CC(C)(C)c1ccc(CC(=O)N2CCC2(C)C(=O)NS(=O)(=O)c2ccc3c(c2)CCO3)cc1 (stereo not given)
→ 1	.	.	4	0.4%	12	-3.7
[34] CC(=O)c1c(O)c2cccc3c2n(c1=O)CCC3
→ .	-6%	18	-7	1.3%	-1	1.7
[35] O=C(COC(=O)/C=C/c1cccc([N+](=O)[O-])c1)NCC1CCCO1 (stereo not given)
→ 3	10%	6	6	-0.9%	-2	1.1
[36] C/C=C(/C)C(=O)Nc1cccc(C2=NOC3(C2)C[C@@H](C(N)=O)N(C(=O)C2(C)CC2)C3)c1 (stereo not given in full)
→ 3	-4%	?	-9	1.7%	0	0.1
[37] COc1cc2cc(Br)cc(Br)c2nc1C
→ 43	-23%	3	10	-0.8%	44	-5.2
[38] COC(=O)c1sc2cc(C(F)(F)F)cnc2c1-c1cccnc1
→ -15	0%	-1	28	3.7%[38.3 µM]	-72*	-4.7
[39] Cn1c(-c2cccc(OCc3ccccc3)c2)nc2c1c(=O)[nH]c(=O)n2Cc1ccccc1
→ -1	-23%	15	-18	9.3%	-1	-3.7
[40] O=C(O)CC(SCC(=O)Nc1ccccc1)C(=O)O (stereo not given)
→ -20	19%	-7	-3	-0.3%	7	-0.1
[41] COc1ccc(S(=O)(=O)N2CCCCC2)cc1NC(=O)C1CC1C (stereo not given)
→ .	.	-8	-1	-0.3%	-5	-4.5
[42] CN(C)N1C(=O)CC(NNC(=O)c2ccncc2)C1=O (stereo not given)
→ -23	7%	-4	-14	-1.9%	-7	-2.6
[43] CCCC(=O)Nc1ccc(NC(=O)C23CC4CC(CC(C4)C2)C3)cn1
→ -2	16%	?	-17	-0.9%	1	-2.8
[44] O=C(CC1SC(=O)N(c2ccccc2)C1=O)Nc1ccccc1 (stereo not given)
→ 4	?	-5	-32	-2.8%[38.3 µM]	-1	-8.7
[45] O=C(C1=NN[C@@H]2C(=O)N(c3ccccc3C(F)(F)F)C(=O)[C@H]12)c1cnccn1
→ .	4%	15	-14	1.4%	4	-3.4
[46] CCOc1ccc2nc(SCC(=O)NC(=O)NCc3ccco3)sc2c1
→ -5	0%	6	-13	2.4%	-14	-2.7
[47] CCOC(=O)c1sc2nc(SCC(=O)NCc3ccco3)n(Cc3ccccc3)c(=O)c2c1C
→ 4	-4%	-6	3	?	-3	1.2
[48] Cc1cccc(N2CCN(C(c3ccc(N(C)C)cc3)c3nnnn3C(C)(C)C)CC2)c1C (stereo not given)
→ -1	17%	-5	-2	3.2%	-2	2.1
[49] N#CC1(Nc2ccc3ccccc3c2)CCCC1
→ -2	.	.	-2	-0.3%	4	-1.0
[50] CNc1nc(Cl)nc2c1ncn2-c1ccccc1
→ -1	.	.	-23	-1.3%	-4	-2.6
[51] O=C(O)c1ccc(CSc2nnc(-c3ccc(Cl)cc3)o2)cc1
→ 10	10%	-2	1	0.3%	0	0.2
[52] Cc1ccccc1CC(=O)NCC1CCCCC1
→ 8	7%	-12	0	0.5%	5	8.3

Fetched by structure from the entries so far (3):
The line under a structure holds: CtBP-E1A inh	Sfp inh	TRPV1 PAM	D2 PAM	PINK1 expr mod	Six1-Eya2 blk	D2 agonist
[45] O=C(C1=NN[C@@H]2C(=O)N(c3ccccc3C(F)(F)F)C(=O)[C@H]12)c1cnccn1
→ .	4%	15	-14	1.4%	4	-3.4
[44] O=C(CC1SC(=O)N(c2ccccc2)C1=O)Nc1ccccc1 (stereo not given)
→ 4	?	-5	-32	-2.8%[38.3 µM]	-1	-8.7
[41] COc1ccc(S(=O)(=O)N2CCCCC2)cc1NC(=O)C1CC1C (stereo not given)
→ .	.	-8	-1	-0.3%	-5	-4.5

Grouped by structure: the compounds so far with an NH in an aromatic ring.
The line under a structure holds: CtBP-E1A inh	Sfp inh	TRPV1 PAM	D2 PAM	PINK1 expr mod	Six1-Eya2 blk	D2 agonist
[5] COc1cc(CNC[C@H]2O[C@@H](n3cc(C)c(=O)[nH]c3=O)C[C@@H]2O)ccc1OCc1cccc(Cl)c1
→ -5	.	.	0	2.8%	8	-3.3
[8] CCOc1ccc(-c2cc(C(=O)NN)[nH]n2)cc1
→ 11	14%	11	8	4.3%	-12	-0.6
[16] COc1ccccc1OCCSc1ncnc2nc[nH]c12
→ -2	10%	8	-4	-2.0%	2	-2.7
[23] O=C(NC1CCCCC1)N(Cc1cc2cc3c(cc2[nH]c1=O)OCCO3)CC1CCCO1 (stereo not given)
→ -2	7%	-26	-11	2.9%[38.3 µM]	4	-1.9
[39] Cn1c(-c2cccc(OCc3ccccc3)c2)nc2c1c(=O)[nH]c(=O)n2Cc1ccccc1
→ -1	-23%	15	-18	9.3%	-1	-3.7
